# CDC25B-CDK2 inh: human CDC25B-CDK2/CyclinA binding inhibition; z-score (concentration not given with the values); 0.72% of 94,000 active; HTRF CDC25B-CDK2/CyclinA binding, anti-His/anti-Flag; active compounds read high; AID 1259370;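 also: score is relative to mean and SD of negative controls; strong numbers were not always called active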
# TAR Tat displ: HIV-1 TAR-Tat binding disruption | HIV-1 TAR RNA, Tat peptide displacement FRET; active compounds read high | z-score (test concentration not listed) | 0.6% of 100,000 active | AID 1259389;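 also: score is relative to mean and SD of negative controls; some compounds called inactive have numbers as strong as hits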
# * = called active by the depositor; · = no result given.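 The calls were made as follows: active = z-score from 3 up in half or more of its runs; inactive = the rest.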
# Preview, 5 compounds:
SMILES	CDC25B-CDK2 inh	TAR Tat displ
Cc1nn(-c2ccc3nnc(C)n3n2)c2c1C(c1ccc(OC(C)C)cc1)CC(=O)N2 (stereo not drawn)	·	1.53
Cn1cc(S(=O)(=O)c2ccccc2)c(=O)c2cc(F)c(N3CCN(c4ccccc4)CC3)cc21	·	0.87
CN(C)C(N)=NCCC[C@H](N)C(=O)O	-0.27	·
CCCC(=O)Nc1ccc2nc(SCc3cc(=O)n4cc(C)sc4n3)sc2c1	·	0.07
CC1=C(c2ccc(F)cc2)S(=O)(=O)NC1=NCc1ccccc1C	·	0.55

# The listing, from the start:
SMILES	CDC25B-CDK2 inh	TAR Tat displ
Cc1nn(-c2ccc3nnc(C)n3n2)c2c1C(c1ccc(OC(C)C)cc1)CC(=O)N2 (stereo not drawn)	·	1.53
Cn1cc(S(=O)(=O)c2ccccc2)c(=O)c2cc(F)c(N3CCN(c4ccccc4)CC3)cc21	·	0.87
CN(C)C(N)=NCCC[C@H](N)C(=O)O	-0.27	·
CCCC(=O)Nc1ccc2nc(SCc3cc(=O)n4cc(C)sc4n3)sc2c1	·	0.07
CC1=C(c2ccc(F)cc2)S(=O)(=O)NC1=NCc1ccccc1C	·	0.55
CC1Oc2ccc(C(=O)c3ccccc3C(=O)O)cc2N(C)C1=O (stereo not drawn)	-0.83	-1.74
Cc1nnsc1C(=O)NCc1csc2ccc(Cl)cc12	1.03	·
COc1ccc(C2/C(=C(/O)c3ccc(Br)cc3)C(=O)C(=O)N2CCO)cc1OC (stereo not drawn)	-1.17	-0.49
CCOC(=O)c1c[nH]c(=S)[nH]1	-2.01	·
O=C(Nc1ccccc1Cl)N1CCN(c2ccc3nncn3n2)CC1	-0.86	2.9
Cn1c(=O)oc2cc(S(=O)(=O)N3CCC(C(=O)NCCC4=CCCCC4)CC3)ccc21	-0.31	-0.51
Cc1nn2c(=O)cc(CSc3n[nH]c(-c4ccccc4F)n3)nc2s1	·	0.2
CC1CCN(CCCNC(=O)C2CCN(c3ncnc4c3nc3n4CCCCC3)CC2)CC1	·	-0.94
CCOC(=O)N1CCC(Nc2c(NCCC(C)C)c(=O)c2=O)CC1	-1.94	0.24
Cc1cccc(CSc2nc3c(c(=O)[nH]2)C(c2ccc(OC(C)C)cc2)CC(=O)N3)c1 (stereo not drawn)	0.47	1.42
CCc1ccc(OCc2cc(=O)n3c(C)csc3n2)cc1	-1.52	0.98
CCCc1cc(C(=O)NC(C)C)no1	-0.94	-0.91
O=C(c1cccn1-c1nnc(N2CCCC2)s1)N1CCOCC1	·	1.05
Cc1onc(C(=O)NC2CCCCC2)c1[N+](=O)[O-]	-0.98	0.91
COc1ccccc1-c1nc2ccc(Cl)cc2c(=O)o1	-1.26	0.09
CCN(CC)C(=O)c1ccc2c(c1)N(CC(=O)Nc1cc(C)on1)C(=O)CS2	·	-1.28
O=c1[nH]c2ccccc2[nH]c1=O	-0.81	·
O=C1CC(c2ccc(F)cc2)c2scc(-c3ccccc3)c2N1 (stereo not drawn)	·	1.31
Cc1[nH]nc2c1C(c1ccc(-c3ccccc3)cc1)C(C#N)=C(N)O2 (stereo not drawn)	-1.8	2.93
CCCNC(=O)C1Cc2cc(S(=O)(=O)N3CCCC3)ccc2N1C(C)=O (stereo not drawn)	·	2.64
Cn1cccc1-c1cc2n(n1)CCCN2C(=O)CCC(=O)NCCC1=CCCCC1	·	1.84
COc1cccc(OC)c1NC(=O)N1CCOCC1	-1.4	·
Cc1ccn2cc(-c3cccc(S(=O)(=O)N4CC(C)OC(C)C4)c3)nc2c1 (stereo not drawn)	0.54	1.63
Cc1oc(-c2ccccc2)nc1Cn1c(=O)cc(C(F)(F)F)c2c(C)nn(C)c21	·	0.48
Cc1cccc2c1Oc1nc(-c3cc(Cl)ccc3O)[nH]c(=O)c1C2	0.55	-6.98

# (listing goes on)
SMILES	CDC25B-CDK2 inh	TAR Tat displ
COc1ccc2nc(NC(=O)CCCCC(=O)Nc3nc4ccc(OC)cc4s3)sc2c1	-2.28	·
CCN(CC)CC(=O)Nc1cc(C)c2c(=O)oc3ccccc3c2n1	-2.86	0.03
COc1ccc(C(=O)Nc2cnc3sccn3c2=O)cc1OC	-0.28	0.83
CSC(N)=Nc1csc(C(F)(F)F)c1-c1ccccc1	-0.84	·
Cc1nc2ccc(S(=O)(=O)NCC(=O)N3CCc4ccccc43)cc2s1	-0.87	-0.08
CCCN(C(=O)Nc1cn(CC(C)C)c(=O)c2ccccc12)c1ccc(F)cc1	·	1.56
Nc1nc(N)nc(-c2ccc(-c3nc(N)nc(N)n3)cc2)n1	-0.06	·
CC(=O)Nc1cc(N2CCOCC2)c(F)cc1[N+](=O)[O-]	-1.36	·
COc1cccc(N2C(=O)C3ON(c4ccccc4)C(c4ccco4)C3C2=O)c1 (stereo not drawn)	-1.85	0
O=C(O)CCCNc1cc(N2CCCC2)c2noc3c2c1C(=O)c1ccccc1-3	1.31	1.49
CCC(C)NC(=O)CSCc1nc2cccnc2n1C1CCCCC1 (stereo not drawn)	·	-2.1
N#Cc1cc2c(=O)n3ccccc3nc2n(-c2nnc(SCc3ccc(F)cc3)s2)c1=O	-6.72	0.85
O=S(=O)(c1ccc(Cl)cc1)n1nc(-c2cccnc2)nc1NCc1cccs1	-2.55	2.95
O=C(c1cc(-c2cccs2)[nH]n1)N1CCN(S(=O)(=O)c2ccc(Br)cc2)CC1	·	1.15
O=C(C(=O)N1CCN(c2cccc(Cl)c2)CC1)c1c[nH]c2ccccc12	-1.42	-1.75
C=C(C)CN1CCN(S(=O)(=O)c2ccc3c(c2)Cc2cc(S(=O)(=O)N4CCN(CC(=C)C)CC4)ccc2-3)CC1	-2.98	·
COc1ccc(N2CCN(C(=O)C3=Cc4cc(OC)ccc4OC3)CC2)cc1	·	0.34
Cc1cc(C)c2c(N)c(C(=O)Nc3ccc(Br)cc3)sc2n1	0	·
O=S(=O)(CCc1ccccc1)Nc1ccc2c(c1)N(S(=O)(=O)c1cccs1)CCC2	·	0.21
O=C(c1nn2c(C(F)(F)F)cc(-c3ccccc3)nc2c1Br)N1CCOCC1	0.1	-0.23
Cc1cccc(C)c1Nc1c(-c2ccccc2)nc2sccn12	0.1	-0.57
O=C(c1ccccc1)N(c1ccc2oc(=O)sc2c1)S(=O)(=O)c1cccs1	-3.46	·
CN(CCO)CCNc1cc(N2CCOCC2)c2noc3c2c1C(=O)c1ccccc1-3	-1.56	-5.47
Nc1ccc(Br)cc1-c1nc2ccccc2[nH]c1=O	·	-0.55
Cc1cccc(OCCSc2nnc(-c3ccc4c(c3)OCO4)o2)c1	-1.04	1.51
O=C1CCCc2c1cc(C(=O)NC1CCSC1=O)c(=O)n2-c1ccccc1 (stereo not drawn)	-0.25	0.15
C=CCn1c(SCC(=O)c2ccccc2)nnc1-c1ccc2c(c1)OCO2	·	0.77
CCn1cnc2c(sc3nc4c(cc32)COC(C)(C)C4)c1=O	2.69	·
CC1=NN(C(=O)c2sc3cc(F)ccc3c2Cl)C(O)(C(F)(F)F)C1 (stereo not drawn)	1.08	·
O=C(CN1C(=O)c2ccccc2S1(=O)=O)Nc1ccc(N2CCCC2)c(Cl)c1	-2.66	1.01

# Reformatted: four of the compounds above.
Compound: Cn1cccc1-c1cc2n(n1)CCCN2C(=O)CCC(=O)NCCC1=CCCCC1
- CDC25B-CDK2 inh = ·
- TAR Tat displ = 1.84

Compound: COc1cccc(OC)c1NC(=O)N1CCOCC1
- CDC25B-CDK2 inh = -1.4
- TAR Tat displ = ·

Compound: Cc1ccn2cc(-c3cccc(S(=O)(=O)N4CC(C)OC(C)C4)c3)nc2c1 (stereo not drawn)
- CDC25B-CDK2 inh = 0.54
- TAR Tat displ = 1.63

Compound: Cc1oc(-c2ccccc2)nc1Cn1c(=O)cc(C(F)(F)F)c2c(C)nn(C)c21
- CDC25B-CDK2 inh = ·
- TAR Tat displ = 0.48

# The list continues:
SMILES	CDC25B-CDK2 inh	TAR Tat displ
Cc1ccc(-c2cc(C(=O)N(Cc3ccco3)Cc3cccs3)no2)cc1C	-1.81	1.26
CCOC(=O)c1c(C)c(C(=O)NC2CCCCC2)c(C)n1CC	-1.7	·
CN(CCNC(=O)Cn1ncc2c3ccccc3n(Cc3ccccc3)c2c1=O)C1CCCCC1	-1.43	0.38
COc1ccc(-c2noc(-c3nnn(-c4ccc(C)cc4C)c3C)n2)cc1	·	1.15
Cc1nnc(Nc2ccccc2)c2c1nnn2Cc1ccccc1Cl	-2.07	-1.23
O=C(NCc1n[nH]c(=S)n1-c1ccccc1)c1ccco1	-1.22	·
Cc1cc(C)c(-c2n[nH]c3c2C(c2ccc(Br)cc2)N(Cc2ccco2)C3=O)c(O)c1 (stereo not drawn)	-1.72	0.39
O=C1NC(=O)C2(COC(c3ccccc3Cl)OC2)S1 (stereo not drawn)	2.61	·
CC(=O)NC1=NN(C(C)=O)C(c2ccc(N(C)C)c(Br)c2)S1 (stereo not drawn)	-3.09	2.36
CCN(CC)CCCN1C(=O)c2nc3ccccc3n2CC1(C)C(=O)NC1CCCC1 (stereo not drawn)	·	1.68
OCC1O[C@H](O)C(Cl)C(O)C1O (stereo partly drawn)	-2.64	·
CC1CCC(NC(=O)CCC2=NS(=O)(=O)c3ccccc3N2)CC1 (stereo not drawn)	·	1.09
C=CCn1oc(=O)n(-c2ccc(OC)cc2)c1=O	-0.14	·
COc1cc(NS(=O)(=O)c2ccc(Nc3nc(-c4cccnc4)cs3)cc2)nc(OC)n1	0.05	·
O=C1c2cccnc2C(=O)N1Cc1ccc(S(=O)(=O)N2CCC(c3ccccc3)C2)cc1 (stereo not drawn)	·	1.56
O=S(=O)(c1ccc2nc(NCc3ccccc3Cl)cnc2c1)N1CCCCC1	-0.51	1.47
CCCN1CCN(C(=O)CCc2nnc3ccc(N(CC)CC)nn23)CC1	·	1.83
Cc1ccnc(NS(=O)(=O)c2ccc3[nH]c4c(c3c2)CCCC4)c1	·	-1.02
CC(C)c1ccc(NNC(=O)CCc2ccccc2)cc1	-2.13	·
O=C(c1ccc(CS(=O)c2ccccc2Cl)o1)N1CCN(C2CCCCC2)CC1 (stereo not drawn)	·	0.65
CN(c1ccccc1)S(=O)(=O)c1ccc(NC(=O)c2cc(=O)c3ccccc3o2)cc1	-1.27	-0.97
Cc1cccc(-c2nc3c4ccccc4nc(-n4nc(C)cc4C)n3n2)c1	-4.57	0
O=C(O)C1CCN(C(=O)c2ccc(F)cc2F)CC1	0.89	·
COc1ccc2[nH]cc(CCNC3CC(=O)N(c4ccc(Br)cc4)C3=O)c2c1 (stereo not drawn)	1.15	-0.86
CN(Cc1ccccc1)C(=O)c1ccc2c(c1)CCN2S(=O)(=O)c1ccc(Br)cc1	0.1	1.57
CCC(C)NC(=O)c1ccc(NC(=O)Cn2c(=O)oc3ccccc32)cc1 (stereo not drawn)	0.98	·
CCN1CCN(c2cc3c(cc2F)c(=O)c(S(=O)(=O)c2ccccc2)cn3CC)CC1	·	0.28
O=C(NC(=O)C1CCCCC1)c1ccccc1O	-1.4	·
CC(C)OCCCNC(=O)c1csc2c1CCCCC2	-0.67	0.25
c1ccc(CNc2ncnc3[nH]ncc23)cc1	·	1.44

# The results go on:
SMILES	CDC25B-CDK2 inh	TAR Tat displ
Cc1cccc(OCc2nc(-c3ccccc3)no2)c1C	-0.06	1.76
CCOc1ccc2c(c1)C(C)=CC(C)(C)N2	·	0.62
CCCCCCC#Cc1cncc(C(=O)O)c1	-1.89	·
CCCOc1ccc(C2C=C(C(=O)O)Nc3nnnn32)cc1 (stereo not drawn)	·	0.7
Cc1nc(SCc2ccccc2)n[nH]1	-0.42	1.93
CCOc1ccc(C2c3c(-c4cc(C)ccc4O)n[nH]c3C(=O)N2CCO)cc1OC (stereo not drawn)	-0.18	0.62
Cc1nnsc1C(=O)NNC(=O)Nc1cc(C(F)(F)F)cc(C(F)(F)F)c1	0.19	·
O=C(Nc1c(C(=O)O)oc2ccccc12)c1ccccc1	-2.92	-0.19
CN1/C(=C/C=C/c2oc3ccccc3[n+]2C)Oc2ccccc21	-1.82	-9.67
Cc1cc2n(n1)CCC(=O)N2CCCC(=O)NCCCN1CCCCC1C (stereo not drawn)	·	2.09
CN1C(=O)C2ON(c3ccc(Cl)cc3)C(c3cccs3)C2C1=O (stereo not drawn)	0.82	2.31
CCN(CC)c1cc2c(cc1F)c(=O)c(S(=O)(=O)c1ccc(Cl)cc1)cn2C	·	0.32
CCOc1ccc(-n2c(C)c(C)c3c2ncn2nc(-c4ccccc4)nc32)cc1	-1.67	1.19
O=C(c1cccn1-c1nnc(N2CCCCC2)s1)N1CCCC1	·	0.76
CN1CCN(C(=O)c2ccccc2NC(=O)CN2C(=O)c3ccccc3C2=O)CC1	-2.89	·
CCCC1NC(=S)N(c2ccccc2)C1=O (stereo not drawn)	-1.13	·
Cn1cccc1-c1cc2n(n1)CCCN2C(=O)Nc1ccc(F)c(Cl)c1	·	0.35
CCC(=O)Nc1nonc1-c1nc2ccccc2n1Cc1cc2c(cc1Br)OCO2	-2.91	0.99
COc1ccc(-n2nc(C#N)c(=O)[nH]c2=O)cc1	-1.55	·
O=C(CCS(=O)(=O)c1ccc2c(c1)CCN2C(=O)C1CC1)Nc1ccc(-c2ccno2)cc1	·	0.98
Cc1nc2c3ccccc3nc(NCc3ccc4c(c3)OCO4)n2n1	-0.87	1.33
O=C(COc1ccc(Cl)cc1)Oc1ccc2c(c1)oc(=O)c1ccccc12	-0.6	-0.57
CCN(CC)c1ccc(C=Nn2c(-c3ccc(Cl)cc3Cl)n[nH]c2=S)c(O)c1	-4.4	·
O=C(CSc1nnc2c(n1)[nH]c1ccccc12)Nc1nnc(-c2ccccc2)s1	-0.33	0.3
O=C(O)CCCC(=O)Nc1nncs1	0.44	0.31

# Source: PubChem BioAssay
